# GLA inh pH 4.5: qHTS Assay for Inhibitors of Human alpha-Galactosidase at pH 4.5 | Alpha-galactosidase A (Homo sapiens), P06280 | purified enzyme, 4-MU-alpha-Gal fluorescence, pH 4.5 | activity change, negative = inhibition, % at 105 µM | 230,000 tested, under 10 active; inconclusive = small, poorly fitted or top-dose-only inhibition, or a rising curve; inactive = flat fitted curve, though single readings scatter; no compound was filed as active;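 note: 0% = full activity with enzyme and -100% = basal without enzyme; dose as in the result columns while the protocol names 77 µM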
# Target sequence (P06280 whole entry, looked up): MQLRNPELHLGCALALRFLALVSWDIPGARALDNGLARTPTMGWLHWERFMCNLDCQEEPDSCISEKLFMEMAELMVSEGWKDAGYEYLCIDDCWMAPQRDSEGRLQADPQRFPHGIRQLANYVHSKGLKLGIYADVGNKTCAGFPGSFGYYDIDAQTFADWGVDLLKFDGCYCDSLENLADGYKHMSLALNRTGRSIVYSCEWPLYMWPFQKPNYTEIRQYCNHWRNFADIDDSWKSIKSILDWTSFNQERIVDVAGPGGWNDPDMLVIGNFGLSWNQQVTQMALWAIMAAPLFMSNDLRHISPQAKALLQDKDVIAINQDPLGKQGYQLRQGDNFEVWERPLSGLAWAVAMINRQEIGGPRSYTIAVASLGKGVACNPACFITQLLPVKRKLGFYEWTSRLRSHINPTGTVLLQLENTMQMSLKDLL
# miR-21 FLuc: qHTS Assay for Modulators of miRNAs and/orActivators of miR-21; HeLa miR-21 FLuc reporter, luciferase, 48 h; Potency, µM (titrated, usually from 38.3 µM), inactives show at the top dose reporter change, positive = more light; 340,000 tested, under 10 active; AID 2288, 2010; active = well fitted rising curve with a large enough effect; inconclusive = small, poorly fitted or top-dose-only effect; inactive = no such curve, though single readings can be large or run the other way;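 note: % of control where 0% means no effect; miR-21 action dims this reporter so a rising signal means less miR-21 action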
#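 HeLa cells stably expressing CMV-driven firefly luciferase with a downstream miR-21 binding sequence, endogenously expressing miR-21, were treated with titrations (up to about 40uM final) for 48 hours at 37 degree Celsius. Luciferase luminescence was read after lysis.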
# Rango dissoc inh: qHTS Assay for Inhibitors of RanGTP induced Rango (Ran-regulated importin-beta cargo) - Importin beta complex dissociation; Snurportin-1 (Homo sapiens) + GTP-binding nuclear protein Ran (Homo sapiens) + Importin …; Biochemical FRET Rango-importin beta, RanGTP-induced dissociation; Potency, µM (series often up to 46.1 µM), without a hit: top-dose activity change, negative = inhibition; actives 0.071% (n = 340,000); AID 540253, 2011; active means falling FRET ratio curve, often poorly fitted, with flat reads before Ran was added; inconclusive means other falling curves, or compound fluorescence or quenching; inactive means flat or rising ratio curve;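 note: potency is the fitted concentration of half-maximal effect; % of control where 0% means no effect; nearly all actives have a fitted effect of over 45% in size; -100% = wells without RanGTP and RCC1; the record marks most hits as doubtful in a second field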
#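 Two FRET readings bracket the reaction: one 5 min after compound meets Rango–importin beta, another 45 min after RanGTP-RCC1 (0.6 uM Ran, 0.2 uM RCC1, 2 mM GTP) is added. Only the second defines inhibition.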
# Rango-impB inh: qHTS Assay for Inhibitors of Rango (Ran-regulated importin-beta cargo) - Importin beta complex formation. Rango CFP/YFP FRET sensor + importin beta, 45 min. actives 0.031% (n = 340,000). Potency, µM (highest dose often 92.2 µM), inactives show at the top dose inhibition of complex formation. Importin subunit beta-1 (Homo sapiens), Q14974; active = rising FRET ratio curve, often small or poorly fitted; inconclusive = mostly compound fluorescence or quenching in the first reads; inactive = flat curves in all reads;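 note: potency is the fitted concentration of half-maximal effect; 0% = DMSO wells and 100% = buffer wells lacking importin beta; nearly all actives have a fitted effect of over 15% in size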
#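 Inhibition scored from the CFP 486 nm/YFP 530 nm FRET ratio 45 min after adding 0.125 microM importin beta to 50 nM Rango biosensor preincubated 5 min with compound (room temperature, PBS with DTT, Tween-20, BSA). No-importin wells as positive control.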
# Starred values were filed as active, the others as inactive; ? = inconclusive; . = no result given; & = joins results of further samples. An excerpt, so the mix of outcomes need not match the whole.
Rango dissoc inh,GLA inh pH 4.5,miR-21 FLuc,Rango-impB inh,SMILES
-5%,-10,-1%,-4.4%,O=C(CSc1ccc2nnc(-c3ccccc3)n2n1)NCc1ccco1
-4%,.,1%,?,O=C(O)c1ccc(Cn2ccc3ccccc32)o1
2%,-7,2%,2.9%,Cc1ccc(NC(=O)CN(C)C(=O)COc2cc(F)ccc2[N+](=O)[O-])cc1
1%,2,-50%,0.4%,CNC(=O)c1ccsc1NC(=O)c1ccc2c(c1)CCCC2
-12%,.,-8%,-0.1%,O=C(Nc1ccccc1C(=O)Nc1ccc(Cl)cc1)c1cccnc1
12%,-1,-7%,-3.1%,COc1cccc(CC(=O)Nc2cc(S(=O)(=O)N3CCOCC3)ccc2N2CCOCC2)c1
36%,0,-2%,-1.6%,CC(=O)NC(NC(=S)Nc1ccc(C)cc1C)C(Cl)(Cl)Cl (centres undefined)
2%,.,-21%,0.6%,Cc1ccc(NC(=O)CCNC(=O)Cn2ccc3ccccc3c2=O)cc1F
14%,-5,-4%,5.1%,CSc1nc(N)nc(SCCS(=O)(=O)c2ccc(Cl)cc2)c1C#N
1%,.,.,-0.5%,Cc1sc2ncnc(N3CCN(S(=O)(=O)c4ccc(Br)cc4)CC3)c2c1C
1%,.,.,2.1%,CC(=O)c1c(C)[nH]c(C(=O)CN2C(=O)NC3(CCCCC3)C2=O)c1C
11%,.,12%,-0.6%,Cc1cc(OCC(O)CN(C)C(=O)C(C)Oc2ccccc2)ccc1Cl (centres undefined)
-6%,.,0%,-2.7%,COc1ccc(CN2C(=O)c3cccnc3C2=O)cc1S(=O)(=O)NCc1ccc(C)o1
-6%,.,1%,0.6%,CN1CCN(C(=O)C2CCN(c3ncnc4c3nc3n4CCCCC3)CC2)CC1
-8%,-4,-6%,-0.4%,CCCCN1C(=O)C(=O)N(CC(=O)N2N=C3/C(=C/c4ccco4)CCCC3C2c2ccco2)C1=O (centres undefined)
-13%,.,-7%,0.1%,CCOc1ccccc1C(=O)Nc1nnc(Cc2ccc(OC)c(OC)c2)s1
-3%,.,-5%,-2.8%,CCCCOc1ccc(/C=N/NC(=O)c2nnn(-c3nonc3N)c2C)cc1
-3%,.,.,?,N#Cc1ccccc1N/C=C/C(=O)c1ccc(Cl)cc1
20%,-5,-14%,-0.6%,CCNc1nc(OC)nc(Oc2ccc(C(=O)OC)cc2)n1
1%,.,.,-2.7%,Cc1ccc(C(=O)NNC(=O)c2ccccc2OCc2c(C)noc2C)cc1
-14%,-2,-6%,-0.3%,N#Cc1cn(CC(=O)N2CCCc3ccccc32)c2ccccc12
?,-1,0%,?,O=c1[nH]c2c(s1)C(c1ccco1)C1C3CCC(C3)C1S2 (centres undefined)
22%,.,.,-0.1%,Cc1c(-c2ccccc2Br)nc2ccccc2c1C(=O)O
-7%,2,-2%,3.0%,COCCN(C(=O)c1cccc(OC)c1)c1nnc(-c2ccncc2)s1
-9%,-3,20%,0.1%,Cc1ccc(S(=O)(=O)N2CCN(Cc3ccccc3)CC2)c(C)c1N(C)S(=O)(=O)c1ccccc1
-3%,-7,6%,0.1%,CC(C)CCNC(=O)C12CN(Cc3ccccc3)CC1C(c1cccc([N+](=O)[O-])c1)=NO2 (centres undefined)
-2%,3,-28%,-0.2%,COC(=O)c1c[nH]n2c(=O)c(Cl)c(C)nc12
-4%,1,-28%,6.4%,CO/N=C/c1ccc(Oc2ccc(C)cc2)nc1
-5%,-9,0%,?,COc1ccc(/C=C/C(=O)c2nc3ccccc3n2CC(=O)c2ccc(OC)cc2)cc1
55%,-2,-2%,-3.1%,Cc1nc2c(ncn2-c2ccccc2)c(=O)n1NC(=O)CN1CCOCC1
-9%,7,0%,4.0%,O=C(NC(c1ccccc1)C(Cl)(Cl)Cl)c1ccccc1 (centres undefined)
-2%,3,0%,-1.1%,CSc1nc(Cl)cc(=O)[nH]1
-7%,11,-2%,-1.0%,Cc1sc2ncn(CC(=O)N3CCOCC3)c(=O)c2c1-c1ccccc1
-20%,-3,-15%,-0.6%,COc1ccc(C(CNC(=O)c2ccco2)N2CCCCC2)cc1 (centres undefined)
-4%,.,0%,-0.2%,CC(C)C(=O)Nc1c(-c2ccc(Cl)cc2)c(=O)c2ccccc2n1C
2%,-14,-6%,-3.1%,CCOC(=O)Cc1cc(=O)c2c(=O)n(-c3ccccc3)[nH]c2[nH]1
-6%,.,1%,-1.1%,Cc1ccc(S(=O)(=O)N2CCCC2C(=O)NCc2ccncc2)cc1 (centres undefined)
1%,-1,?,-2.7%,CCOC(=O)c1ccc(NC(=O)Cn2ncc(Cl)c(Cl)c2=O)cc1
14%,.,.,-2.9%,Cc1cc(NS(=O)(=O)c2ccc(NC(=O)c3ccccc3F)cc2)no1
-24%,.,.,0.5%,CCCN(CC(=O)Nc1cc(Cl)ccc1Cl)C(=O)c1ccccn1
-3%,.,.,3.6%,CC1CC(=O)Nc2ccccc2N1C(=O)Cn1cnc2ccc(Br)cc2c1=O (centres undefined)
-8%,5,-24%,-3.0%,O=C(Nc1ccc(Cl)cc1)c1ccc(OCC2CCCO2)cc1 (centres undefined)
-5%,.,.,4.7%,Cc1ccc(OCC(=O)OCC(=O)NC2CCCC2)cc1C
4%,-5,-6%,6.8%,Cn1cc(C(=O)c2cccc(Cl)c2Cl)cc1C#N
-8%,6,7%,-1.7%,CC(C)(C)c1cc(/C=N/O)cc(C(C)(C)C)c1O
-10%,1,-21%,-0.8%,CCc1cc2c(=O)c(-c3nc(C)cs3)coc2cc1O
-7%,.,18%,-4.4%,COc1ccc(S(=O)(=O)N2CCCC(C(=O)N3CCN(c4ccccc4)CC3)C2)cc1Cl (centres undefined)
2%,4,-6%,0.2%,COc1cccc(-c2cc(C(F)(F)F)nc(-n3cc(Cl)cn3)n2)c1
-8%,-23,1%,0.1%,CC(C)(C)c1ccc(NC(=O)CNC2CCCc3ccccc32)cc1 (centres undefined)
8%,.,.,-5.6%,C#CC(=O)CCC1CCCN1C(=O)OC(C)(C)C (centres undefined)
-18%,1,?,-3.0%,O=C(c1ccc(Cl)cc1)N1CCCCC(Sc2nnc(-c3ccc4c(c3)OCO4)o2)C1=O (centres undefined)
20%,.,0%,0.7%,CC(=O)NC(Cc1ccccc1)C(=O)NC1CCN(C(=O)NCc2ccccc2)CC1 (centres undefined)
2%,.,.,0.2%,CCC[C@@H](CN1CCC[C@H]1CN1C(N)=NC[C@@H]1Cc1ccccc1)N1C[C@@H]([C@H](C)CC)N(CCc2ccc(Cl)c(Cl)c2)C1=N
5%,-6,-10%,-1.0%,O=C(N/N=C/c1cccnc1)c1cc2c(ccc3ccccc32)o1
0%,-6,-2%,1.1%,COc1ccc(S(=O)(=O)N2CCCCCC2)cc1NC(=O)Cc1ccccc1F
1%,-5,2%,2.0%,O=S(N1CCCCCC1)C12CC3CC(CC(C3)C1)C2 (centres undefined)
-7%,.,.,-5.8%,CC1(c2ccc3ccccc3c2)NC(=O)N(CC(=O)Nc2ncccc2O)C1=O (centres undefined)
23%,5,-17%,-6.7%,Cc1ccc(-c2csc(Nc3ccccc3)[n+]2CCc2ccccc2)cc1
12%,2,4%,-0.4%,C=CCn1c(O)c(N=O)c2cc(C)ccc21
9%,.,.,2.0%,C#CCOCCOCCOCCNc1nc(N2CCOCC2)nc(N2CCN(C(=O)[C@H](CC(N)=O)n3cc(C(N)[C@@H](C)CC)nn3)CC2)n1 (some centres undefined)

# Sorted by length of the SMILES (low to high): 13 of the compounds above
Rango dissoc inh,GLA inh pH 4.5,miR-21 FLuc,Rango-impB inh,SMILES
12%,2,4%,-0.4%,C=CCn1c(O)c(N=O)c2cc(C)ccc21
8%,.,.,-5.6%,C#CC(=O)CCC1CCCN1C(=O)OC(C)(C)C (centres undefined)
-10%,1,-21%,-0.8%,CCc1cc2c(=O)c(-c3nc(C)cs3)coc2cc1O
20%,-5,-14%,-0.6%,CCNc1nc(OC)nc(Oc2ccc(C(=O)OC)cc2)n1
-5%,-10,-1%,-4.4%,O=C(CSc1ccc2nnc(-c3ccccc3)n2n1)NCc1ccco1
11%,.,12%,-0.6%,Cc1cc(OCC(O)CN(C)C(=O)C(C)Oc2ccccc2)ccc1Cl (centres undefined)
2%,.,-21%,0.6%,Cc1ccc(NC(=O)CCNC(=O)Cn2ccc3ccccc3c2=O)cc1F
14%,.,.,-2.9%,Cc1cc(NS(=O)(=O)c2ccc(NC(=O)c3ccccc3F)cc2)no1
1%,.,.,-0.5%,Cc1sc2ncnc(N3CCN(S(=O)(=O)c4ccc(Br)cc4)CC3)c2c1C
-3%,-7,6%,0.1%,CC(C)CCNC(=O)C12CN(Cc3ccccc3)CC1C(c1cccc([N+](=O)[O-])c1)=NO2 (centres undefined)
-8%,-4,-6%,-0.4%,CCCCN1C(=O)C(=O)N(CC(=O)N2N=C3/C(=C/c4ccco4)CCCC3C2c2ccco2)C1=O (centres undefined)
9%,.,.,2.0%,C#CCOCCOCCOCCNc1nc(N2CCOCC2)nc(N2CCN(C(=O)[C@H](CC(N)=O)n3cc(C(N)[C@@H](C)CC)nn3)CC2)n1 (some centres undefined)
2%,.,.,0.2%,CCC[C@@H](CN1CCC[C@H]1CN1C(N)=NC[C@@H]1Cc1ccccc1)N1C[C@@H]([C@H](C)CC)N(CCc2ccc(Cl)c(Cl)c2)C1=N

# (more compounds)
Rango dissoc inh,GLA inh pH 4.5,miR-21 FLuc,Rango-impB inh,SMILES
1%,.,-4%,0.1%,CCC(=O)N1c2ccc(S(=O)(=O)NC3CCCCC3)cc2CC1C (centres undefined)
?,9,-26%,?,CCCCNC(=O)COC(=O)c1c2c(nc3ccccc13)/C(=C/c1cccs1)CC2
0%,5,-14%,1.6%,N#Cc1nc(Cc2ccccc2)oc1NCc1cccnc1
6%,.,0%,-1.0%,Cc1cc(C)n(C(=O)c2cccc([N+](=O)[O-])c2C)n1
2%,-3,5%,-2.9%,COc1ccc(C(c2nnnn2CC2CCCO2)N2CCN(c3ccc(F)cc3)CC2)cc1 (centres undefined)
.,-2,-17%,.,COc1ccc2cc(/C(C)=N/NC(=S)Nc3cc(S(=O)(=O)N4CCOCC4)ccc3N3CCOCC3)ccc2c1
?,6,0%,?,CC1(C)CC(=O)NC=C(c2ccccc2)C1
36%,3,-2%,-3.3%,O=C(Nc1ccccc1F)c1ccccc1-c1ccccc1
?,-7&-12,.,0.7%,Cc1cc(NC(=O)Nc2ccc3c(ccn3C)c2)sn1
1%,6,-1%,-0.4%,Cc1c(NC(=O)C(C)OC(=O)C23CC4CC(CC(Br)(C4)C2)C3)c(=O)n(-c2ccccc2)n1C (centres undefined)
-7%,.,6%,-3.5%,COC(=O)CCCC(=O)N1CCCC(C(=O)c2ccc(-c3ccccc3)cc2)C1 (centres undefined)
17%,-5,0%,1.2%,CCCN1C(=O)C2(SC(NC(C)=O)=NN2C(C)=O)c2cc(C)cc(C)c21 (centres undefined)
-1%,.,2%,-2.2%,Cc1cc(C(=O)N2CCCC(N3CCN(c4cccc(C(F)(F)F)c4)CC3)C2)nn1C (centres undefined)
0%,3,1%,-3.7%,O=C(CCCOc1ccc(Cl)cc1Cl)N/N=C/c1ccccc1
-4%,2,-33%,0.4%,O=C(NCc1ccco1)c1ccc2c(c1)C(=O)c1ccccc1-2
-7%,8,1%,-4.8%,O=C(CSc1n[nH]c(-c2ccccc2)n1)NCc1cccc(C(=O)O)c1
-8%,-1,-16%,-6.7%,O=C(Nc1cccc(NC(=O)c2ccc3c(c2)OCO3)c1)c1ccccc1
0%,2,12%,1.8%,CC(=O)c1ccc(N2CCN(C(=O)CCCn3c(=O)[nH]c4ccccc4c3=O)CC2)cc1

# Screens: PubChem, National Center for Advancing Translational Sciences (NCATS)
